Screens (PubChem BioAssay)
GIV Gai3 FP: GIV-Galpha-i interaction inhibition; P08753; Galpha-i3/FITC-GIV peptide fluorescence polarization, 90 min; hits give low values; scaled: aluminum fluoride 0%, vehicle 100%; percent of control (FP), % (no concentration beside the values); 210,000 compounds, 0.42% hits;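 active = replicate mean at 85% of control or lower, very high polarization wells dropped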;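 note: wells of about 15 µL received 100 nL stock; the first replicate is given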
Target sequence (P08753 whole entry, looked up): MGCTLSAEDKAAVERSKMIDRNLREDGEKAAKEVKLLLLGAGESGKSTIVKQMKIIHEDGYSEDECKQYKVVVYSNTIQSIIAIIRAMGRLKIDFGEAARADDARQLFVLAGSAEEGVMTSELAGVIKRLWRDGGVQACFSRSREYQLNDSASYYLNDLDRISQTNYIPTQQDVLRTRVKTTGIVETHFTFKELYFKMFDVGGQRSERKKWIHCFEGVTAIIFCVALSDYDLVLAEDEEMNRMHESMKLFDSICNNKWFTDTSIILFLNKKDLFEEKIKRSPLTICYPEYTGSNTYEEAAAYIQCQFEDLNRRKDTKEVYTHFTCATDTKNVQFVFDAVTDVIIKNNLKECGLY
Sa growth inh: S. aureus growth inhibition. S. aureus RN4220 growth, OD600, 20 h, 42 °C; hits give low values. 170,000 compounds, 0.53% hits. AID 720641. relative growth, % (no concentration beside the values);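 active = growth at 42 °C up to 50% and 20 or more points under that at 30 °C, or under 10% at both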;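 note: 300 nL library stock went into each well; scaled to the means of positive and negative controls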
HCMV NEC inh: inhibitors of HCMV UL50-UL53 nuclear egress complex interaction | HTRF UL50-UL53 interaction, normalized percent inhibition | 190,000 compounds, 0.15% hits | inhibition, % (test concentration not listed);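 active = both replicates at 50% or more, plus weaker picks with an unusually low signal ratio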;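 note: stock transfer was 100 nL into about 20 µL; 0% = negative control wells and 100% = wells with untagged competitor protein; inactives centre near -12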
Sa growth inh second temp: further read-out of Sa growth inh, marked with its call; relative growth, %; measured here: growth at 30 °C;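 optical density after 20 h as mean of two plates; 100% = untreated growth and lower means inhibition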
The depositor's hits bear a star; x = not tested or not shown.

SMILES	GIV Gai3 FP	Sa growth inh	Sa growth inh second temp	HCMV NEC inh
O=C(c1cnc2c(c1)COc1ccccc1-2)c1cc(Cl)ccc1O	x	68	81	-19
O=C1CC(c2nc3ccccc3n2CCCOc2ccccc2)CN1c1ccc(F)cc1 (stereo unspecified)	106	117	86	-9
CC(C)NC(=O)CCCCn1c(=O)c2ccccc2n(CC(=O)Nc2ccccc2Cl)c1=O	110	x	x	-20
CC(=O)N1CC(=O)N(O)C1c1ccc(Cl)cc1Cl (stereo unspecified)	99	98	126	-2
COc1ccccc1C(=O)Nc1c(C(=O)Nc2ccc(C)cc2)oc2ccccc12	96	99	85	-41
O=S(=O)(c1ccc(F)cc1)N1CCc2cc3ccccc3nc21	104	x	x	-23
CN(C)CCN(Cc1ccccc1)Cc1ccc(Cl)cc1	x	139	96	-5
COc1cc(C)nc(NC(=O)Nc2sc(NS(=O)(=O)c3ccccc3)nc2C)n1	110	x	x	5
CCOC(=O)Nc1nc2c(Cl)cccc2s1	x	119	90	4
O=C(CSCn1nnc2c(=O)[nH]c(Cc3ccc(F)cc3)nc21)Nc1ccc(F)cc1	104	107	88	x
CCCN(CC1CC1)C(=O)CSc1nc2ccccc2[nH]1	x	95	89	-17
Cc1ccc(NC(c2ccc(Cl)cc2)c2nnc(-c3cccc(F)c3)o2)cc1C (stereo unspecified)	101	101	88	-9
O=C1CC(c2ccc(Br)cc2)c2c(-c3ccccc3)nn(-c3ccccc3)c2N1 (stereo unspecified)	101	x	x	-17
COCCNC(=O)c1cnc2sc(N3CCC(C)CC3)nn2c1=O	97	112	90	x
N#CC(C(=S)Nc1ccccc1)c1nc2ccccc2[nH]1 (stereo unspecified)	105	89	80	-34
NC(=O)c1cccc(CSCc2csc3ccccc23)c1	103	96	76	-8
Cc1ccc2c(CC(=O)NCC3COc4ccccc4O3)coc2c1 (stereo unspecified)	x	137	97	-6
N#Cc1cn(Cc2ccccc2)c2ccccc12	106	78	78	-18
Cc1ccccc1-c1noc(-c2nnn(-c3ccc(C(F)(F)F)c(Cl)c3)c2N)n1	105	100	98	-20
CC1C(O)CCC1(C(=O)O)c1ccccc1 (stereo unspecified)	96	91	99	-7
CCCOc1ccc(C(=O)Nc2nonc2-c2ccc(OCC)cc2)cc1	100	101	99	-1
COc1ccc(-c2csc3nc(-c4ccc(F)cc4)oc(=O)c23)cc1OC	107	110	91	-43
O=C(c1ccc2c(c1)N(Cc1cccc(Cl)c1)C(=O)CS2)N1CCOCC1	97	84	64	-16
CC(=O)c1ccc(Nc2cc(C)nc3nc(Cc4ccc(Cl)cc4)nn23)cc1	103	106	82	-36
Fc1ccc(-c2ccc(CNCc3ccco3)o2)cc1	101	x	x	-3

The listing continues:
SMILES	GIV Gai3 FP	Sa growth inh	Sa growth inh second temp	HCMV NEC inh
O=C(Nc1ccc(F)cc1F)N1CCc2c(sc3c2CCCC3)C1c1ccc(F)cc1 (stereo unspecified)	98	88	88	x
COc1ccc(NC(=O)CCc2nc3cccnc3n2Cc2cccs2)cc1OC	128	104	93	4
Cc1ccc2nc(-c3ccc(Br)o3)c(Nc3ccc4c(c3)OCCO4)n2c1	101	108	85	-15
CCc1ccc(NC(=O)CSc2nc3c(c(=O)n2CC)SC(C)C3)cc1 (stereo unspecified)	99	78	68	x
Cn1cccc1/C=N/n1c(COc2ccccc2)n[nH]c1=S	x	90	85	-26
CC(C)(C)OC(=O)N1CCC(c2c(C(=O)NCCc3ccccc3)cnn2-c2ccc(F)cc2)CC1	103	98	93	x
CCC(C)OC(=O)C1=C(C)NC(=O)NC1c1cc(Br)c(O)c(OC)c1 (stereo unspecified)	107	x	x	-6
Cc1ccc(-c2nc(N3CCC(C(N)=O)CC3)c3ccccc3n2)cc1	105	x	x	-24
C/C(N)=C(/C#N)C(=O)CSc1nnc(-c2ccc(Cl)cc2)n1CC1CCCO1 (stereo unspecified)	x	82	90	-10
Cc1cc(C(=O)NCc2ccc3c(c2)OCO3)c2c(=O)n(C)c(=O)n(C)c2n1	105	x	x	-31
CCn1c(=N)c(S(=O)(=O)c2ccc(C)cc2)cc2c(=O)n3ccccc3nc21	103	110	92	-53
O=C(COC(=O)C12CC3CC(CC(Br)(C3)C1)C2)N1CCCCC1	x	96	88	-31
CC(C)c1nnc(NCC(C)(C)C)s1	96	92	88	x
CCC(=O)Nc1ccc(C(=O)N2CCN(CC)CC2)cc1	101	86	104	-23
CC(C)NC(=O)CCCCn1c(=O)c2ccccc2n(CC(=O)NCc2ccc3c(c2)OCO3)c1=O	105	x	x	-5
CCn1cc(/C=C(\NC(=O)c2cc(OC)c(OC)c(OC)c2)C(=O)NCCCn2ccnc2)c2ccccc21	105	106	84	-32
CCCNc1cc(C(C)(C)C)nc2c(-c3ccc(F)cc3)c(C)nn12	96	x	x	-15
N#C/C=C/N1CCC(CCCC2CCN(/C=C/C#N)CC2)CC1	x	92	87	-2
Cc1cccc(OCCCC(=O)N2CCN(S(=O)(=O)c3ccc4c(c3)OCCO4)CC2)c1	x	91	98	-19
Cc1ccc(S(=O)(=O)C(CNC(=O)c2ccc(C(F)(F)F)cc2)c2ccco2)cc1 (stereo unspecified)	100	101	95	x
COC(=O)c1cc2oc3ccccc3c2n1Cc1c(F)cccc1Cl	102	103	91	11
CCn1c(SCc2c(F)cccc2Cl)nc(=O)c2c(C(=O)OC)cc(C3CC3)nc21	98	102	94	x
CN(C)c1ccc(C(=O)Nc2ccccc2N2CCOCC2)cc1	99	112	80	-22
CCOC(=O)c1c(C)[nH]c(C)c1S(=O)(=O)N1CCCC(C(=O)Nc2ccc(C)c(N(C)C)c2)C1 (stereo unspecified)	103	79	90	x
O=C(CN1C(=O)c2ccccc2C1=O)OCc1ccccc1	102	103	105	-12

28 structures out of the list, arranged by molar mass, largest number first.
SMILES	GIV Gai3 FP	Sa growth inh	Sa growth inh second temp	HCMV NEC inh
CC(C)NC(=O)CCCCn1c(=O)c2ccccc2n(CC(=O)NCc2ccc3c(c2)OCO3)c1=O	105	x	x	-5
CC(C)(C)OC(=O)N1CCC(c2c(C(=O)NCCc3ccccc3)cnn2-c2ccc(F)cc2)CC1	103	98	93	x
CCOC(=O)c1c(C)[nH]c(C)c1S(=O)(=O)N1CCCC(C(=O)Nc2ccc(C)c(N(C)C)c2)C1 (stereo unspecified)	103	79	90	x
Cc1cccc(OCCCC(=O)N2CCN(S(=O)(=O)c3ccc4c(c3)OCCO4)CC2)c1	x	91	98	-19
CCn1c(SCc2c(F)cccc2Cl)nc(=O)c2c(C(=O)OC)cc(C3CC3)nc21	98	102	94	x
O=C(Nc1ccc(F)cc1F)N1CCc2c(sc3c2CCCC3)C1c1ccc(F)cc1 (stereo unspecified)	98	88	88	x
Cc1ccc(S(=O)(=O)C(CNC(=O)c2ccc(C(F)(F)F)cc2)c2ccco2)cc1 (stereo unspecified)	100	101	95	x
COc1ccc(NC(=O)CCc2nc3cccnc3n2Cc2cccs2)cc1OC	128	104	93	4
C/C(N)=C(/C#N)C(=O)CSc1nnc(-c2ccc(Cl)cc2)n1CC1CCCO1 (stereo unspecified)	x	82	90	-10
CCC(C)OC(=O)C1=C(C)NC(=O)NC1c1cc(Br)c(O)c(OC)c1 (stereo unspecified)	107	x	x	-6
O=C(c1ccc2c(c1)N(Cc1cccc(Cl)c1)C(=O)CS2)N1CCOCC1	97	84	64	-16
CCn1c(=N)c(S(=O)(=O)c2ccc(C)cc2)cc2c(=O)n3ccccc3nc21	103	110	92	-53
CC(=O)c1ccc(Nc2cc(C)nc3nc(Cc4ccc(Cl)cc4)nn23)cc1	103	106	82	-36
CCc1ccc(NC(=O)CSc2nc3c(c(=O)n2CC)SC(C)C3)cc1 (stereo unspecified)	99	78	68	x
COc1ccc(-c2csc3nc(-c4ccc(F)cc4)oc(=O)c23)cc1OC	107	110	91	-43
Cc1cc(C(=O)NCc2ccc3c(c2)OCO3)c2c(=O)n(C)c(=O)n(C)c2n1	105	x	x	-31
CCCOc1ccc(C(=O)Nc2nonc2-c2ccc(OCC)cc2)cc1	100	101	99	-1
COC(=O)c1cc2oc3ccccc3c2n1Cc1c(F)cccc1Cl	102	103	91	11
Cc1ccc(-c2nc(N3CCC(C(N)=O)CC3)c3ccccc3n2)cc1	105	x	x	-24
CCCNc1cc(C(C)(C)C)nc2c(-c3ccc(F)cc3)c(C)nn12	96	x	x	-15
CN(C)c1ccc(C(=O)Nc2ccccc2N2CCOCC2)cc1	99	112	80	-22
Cn1cccc1/C=N/n1c(COc2ccccc2)n[nH]c1=S	x	90	85	-26
N#C/C=C/N1CCC(CCCC2CCN(/C=C/C#N)CC2)CC1	x	92	87	-2
O=C(CN1C(=O)c2ccccc2C1=O)OCc1ccccc1	102	103	105	-12
CCC(=O)Nc1ccc(C(=O)N2CCN(CC)CC2)cc1	101	86	104	-23
Fc1ccc(-c2ccc(CNCc3ccco3)o2)cc1	101	x	x	-3
CC1C(O)CCC1(C(=O)O)c1ccccc1 (stereo unspecified)	96	91	99	-7
CC(C)c1nnc(NCC(C)(C)C)s1	96	92	88	x

New compounds follow.
SMILES	GIV Gai3 FP	Sa growth inh	Sa growth inh second temp	HCMV NEC inh
CCOC(=O)c1c(C)[nH]c(C(=O)Cn2ncc(Cl)c(Cl)c2=O)c1C	x	110	89	-23
Cc1csc(C(C#N)C(=O)CSc2nc3ccccc3n2-c2ccccc2)n1 (stereo unspecified)	x	47	27	8
Cc1ccc(C)c(OCC(=O)N(Cc2nnc(-c3ccc(Cl)cc3)o2)C2CC2)c1	x	84	98	-3
O=C(OCN1C(=O)c2ccccc2C1=O)c1ccc2ncsc2c1	x	112	89	-5
Cc1cccc(C(=O)Nc2ccc(-c3nc4cc(C(C)C)ccc4o3)cc2)c1	102	83	75	-26
Cc1ccc(N2CCN(C(=O)c3nc(-c4ccncc4)no3)CC2)c(C)c1	101	88	84	x
N=c1sccn1CC(=O)c1cccs1	98	98	85	-16
CC(C)=C(C#N)c1nc2ccccc2[nH]1	x	89	82	-30
COc1cc(C=C2C(=O)NC(=S)NC2=O)cc(Cl)c1OCCOc1ccccc1C	97	x	x	-16
Cc1cccc(Cn2cc3c(=O)n(CC(=O)Nc4c(C)cccc4C)nc-3c3cc(F)ccc32)c1	103	92	90	x
Cc1cccc(-c2nc3scc(CCNS(=O)(=O)c4c(C)noc4C)n3n2)c1	95	131	91	x
O=C([C@H](Cc1ccccc1)N1Cc2ccccc2C1=O)N1CCN(c2ccc(F)cc2)CC1	106	99	84	7
c1ccc(CN2CCC(Nc3ncnc4sccc34)CC2)cc1	100	95	89	-27
O=C(NCc1cccs1)c1ccc2c(c1)N(Cc1ccccc1Cl)C(=O)c1ccccc1S2	106	126	102	x
Cc1csc(-c2sc3ccccc3c2O)n1	101	63	64	-30
CCCOc1ccc(Cc2nc(N)c(NC(C)=O)c(=O)[nH]2)cc1	x	133	91	-12
CCn1c(C)c(CCC(=O)N2CCCC2)c(=O)n2nc(-c3ccccc3OC)cc12	101	99	85	x
CC1CCN(C(=O)C2CCN(c3nnc(-n4cccc4)s3)CC2)CC1	107	102	95	3
COCCOC(=O)C1=C(C)NC(=O)NC1c1cc2c(cc1Br)OCO2 (stereo unspecified)	103	x	x	-17
O=C(NCCn1c(C(F)(F)F)nc2cccnc21)Nc1ccc2c(c1)OCCO2	117	x	x	3
CCOC(=O)c1ccccc1NC(=O)CN1C(=O)CC(c2ccco2)Sc2ccccc21 (stereo unspecified)	107	109	84	-29
CCOC(=O)C1CCCN(C(=S)Nc2ccc(OCC)cc2)C1 (stereo unspecified)	105	121	92	x
COC(=O)c1ccc(CSc2nnnn2Cc2ccccc2)cc1	99	119	105	-2
Cn1c(=NC(=O)CSCC(=O)N2CCCc3ccccc32)sc2ccccc21	101	86	75	x
Cc1ccc(CSc2nnc3n(C)c(=O)c4sccc4n23)cc1	95	x	x	-16

The results go on.
SMILES	GIV Gai3 FP	Sa growth inh	Sa growth inh second temp	HCMV NEC inh
CC(NC(=O)c1cccc(N)c1)c1ccccc1 (stereo unspecified)	x	132	89	-4
O=c1cc(C(F)(F)F)[nH]c(=S)[nH]1	103	93	92	0
COc1cc2ncnc(Nc3ccccc3)c2cc1OC	115	95	89	-17
CCOc1ccc2c(c1)cc(C(=O)N1CCCC1)n2C	100	x	x	-6
COc1ccc(NS(=O)(=O)c2cc(Br)cnc2N)cc1	100	85	74	x
CNC(=S)N1CCN(c2ccc(Cl)c(Cl)c2)CC1	108	75	97	-1
Cc1ccc(NC(=O)/C=C/c2ccc(C)o2)c(C)c1	109	91	83	-32
CCC(=O)N1c2ccc(S(=O)(=O)NCc3ccccc3)cc2CC1C (stereo unspecified)	101	83	86	x
CCOC(=O)N1CCC2(CC1)OC(=O)C(C)=C2C(=O)NCc1ccccc1	110	93	103	-6

Just HCMV NEC inh, for 2 of the compounds above:
molecule	HCMV NEC inh
CCOC(=O)N1CCC2(CC1)OC(=O)C(C)=C2C(=O)NCc1ccccc1	-6
CNC(=S)N1CCN(c2ccc(Cl)c(Cl)c2)CC1	-1
